High-throughput results as filed in PubChem BioAssay.
RGS16-Gao – modulators of RGS16 binding to Galphao, primary screen, biochemical, human proteins, multiplexed bead flow cytometry; Regulator of G-protein signaling 16 (Homo sapiens) + Guanine nucleotide-binding protein …; bead-based flow cytometry RGS16-Galphao binding, fluorescence; actives lie on both sides; binding response (% of control), % at 10 µM; actives 0.38% (n = 220,000); AID 1441, 2008;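 active means below 25% or above 175%, edge rows of some plates excepted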;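 further: Galphao activated by GDP with aluminum fluoride before binding; 100% = wells without compound and 0% = beads without RGS; some results beyond the cut were filed as inactive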
Target sequence (O15492 whole entry, looked up): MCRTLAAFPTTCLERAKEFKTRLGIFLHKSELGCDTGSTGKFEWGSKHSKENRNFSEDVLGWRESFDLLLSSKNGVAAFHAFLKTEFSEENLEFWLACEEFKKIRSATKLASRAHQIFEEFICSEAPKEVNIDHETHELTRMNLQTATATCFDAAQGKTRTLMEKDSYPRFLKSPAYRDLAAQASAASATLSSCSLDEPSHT
Target sequence (P09471 whole entry, looked up): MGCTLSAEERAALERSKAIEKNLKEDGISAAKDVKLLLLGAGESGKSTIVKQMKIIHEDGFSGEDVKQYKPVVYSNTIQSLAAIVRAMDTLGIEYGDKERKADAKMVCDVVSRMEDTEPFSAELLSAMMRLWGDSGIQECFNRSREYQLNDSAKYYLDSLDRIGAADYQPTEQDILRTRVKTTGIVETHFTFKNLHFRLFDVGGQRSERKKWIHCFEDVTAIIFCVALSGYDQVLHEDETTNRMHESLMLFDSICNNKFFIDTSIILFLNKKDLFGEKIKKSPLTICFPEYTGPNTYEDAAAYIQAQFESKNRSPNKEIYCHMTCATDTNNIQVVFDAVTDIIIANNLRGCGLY
INS promoter inh – inhibitors of insulin promoter-driven GFP, primary screen, imaging, TRM-6 cells (human fetal islet line), eGFP reporter, cell count. AID 1273, 2008. actives 0.9% (n = 130,000). reporter expression induced with tamoxifen. inhibition, % at 2 µM;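 active means inhibition above the mean plus 3 SD, with well images judged a real hit on visual review, cut at about 60% in these data, passing the limit was not always enough; inconclusive means inhibition over the cutoff but images rejected on review; inactive means inhibition not above the cutoff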
GALR2 agonist – GALR2 receptor agonists, primary screen, cell-based; activation, %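 (tested at 5 µM)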; actives 0.48% (n = 140,000); GALR2-expressing cells, agonist activation read-out;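 active means above mean plus 3 SD of all compounds, about 5% in these data, not always enough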;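 further: 0% = vehicle buffer wells and 100% = reference agonist at full effect; tested in CHO reporter cells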
Target sequence (O43603 whole entry, looked up): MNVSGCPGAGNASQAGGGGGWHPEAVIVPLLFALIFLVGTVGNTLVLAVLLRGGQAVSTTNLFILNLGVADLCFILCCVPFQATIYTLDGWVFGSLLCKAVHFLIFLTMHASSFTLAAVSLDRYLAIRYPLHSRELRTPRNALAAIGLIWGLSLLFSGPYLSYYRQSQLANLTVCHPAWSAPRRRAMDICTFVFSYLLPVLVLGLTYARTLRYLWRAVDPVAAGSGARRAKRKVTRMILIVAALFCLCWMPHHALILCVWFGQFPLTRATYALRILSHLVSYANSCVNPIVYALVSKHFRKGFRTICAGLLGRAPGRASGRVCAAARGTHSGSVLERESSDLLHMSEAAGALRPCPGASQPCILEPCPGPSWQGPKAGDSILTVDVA
HSV replic up – enhancers of HSV replication in host cells, fold increase, host cell viability; HSV replication augmentation in cells; AID 1956, 2009; maximum fold increase; actives 0.005% (n = 220,000);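 active means peak rise of 1.5-fold or more in the series; inconclusive means self-fluorescent or not available for retest; tested in PC3 cells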;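 further: first round at 10 µM; read as green reporter fluorescence; hits show the peak of a series up to 25 µM; 1 = signal of infected wells without compound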
PKD1 inh – inhibitors of human PKD1 kinase, biochemical, fluorescence polarization; inhibition, %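 (about 10 µM by stock and volumes)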; actives 0.056% (n = 200,000); PKD1 kinase fluorescence polarization assay;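 active means inhibition of 50% or more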;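 further: controls were vehicle for no effect and a reference inhibitor for full effect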
INS promoter inh cell count – also measured in INS promoter inh; calls as there; normalized cell count, %; measured here: cell count, toxicity; reference of the scale not given here;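 cells exposed to compound for 48 h; stained nuclei by imaging scaled within each plate; lower means fewer cells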
HSV replic up primary fold – further read-out of HSV replic up, marked with its call; fold increase; compound at 10 µM; measured here: primary screen fold increase 10 uM; tested in PC3 cells;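 GFP signal in the first replicate; 1 = infected wells without compound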
* hit, by the source's call; i = inactive; ? = inconclusive; / = no result given. Random draw from the library. About 1.3% of those tested had a hit in this group.

SMILES	RGS16-Gao	INS promoter inh	INS promoter inh cell count	GALR2 agonist	HSV replic up	HSV replic up primary fold	PKD1 inh
CCCCN1C(=O)c2ccc(C(=O)Nc3ccc(S(=O)(=O)N(C)C)cc3)cc2C1=O	98	23	128	-1.4	/	/	7
Cc1cccc(N=C2N=C(N)c3ccccc32)c1	102	5	321	-0.4	i	0.83	-1
CCOc1ccc2nc(Nc3nc4ccc(NC(C)=O)cc4s3)sc2c1	115	4	122	35*	i	0.68	-1
CCOC(=O)C1(CC2CCCCO2)CCN(C(=O)Nc2ccccc2CC)CC1 (centres undefined)	105	/	/	/	i	1.1	-3
C=CCNc1nc(-c2sc(NC(=O)CC)nc2C)cs1	76	-26	224	-4.1	i	0.98	-1
CC(=O)Nc1cccc(NC(=O)Nc2ccc(C)c(Cl)c2)c1	100	/	/	/	i	1	2
COc1cc(OC)c(C2CC(=O)N3CN(c4ccccc4C)CSC3=C2C#N)cc1OC (centres undefined)	77	/	/	-0.8	i	0.84	-9
Cc1ccccc1-c1nc(S(=O)(=O)c2ccc(Cl)cc2)c(NCCN2CCOCC2)o1	99	21	120	-1.6	i	0.84	-4
O=C1CCCC2=C1C(c1cccs1)Nc1ccc3ncccc3c12 (centres undefined)	108	/	/	-2.3	i	0.81	10
CCOc1ccc(CCNC(=O)c2ccc(CNS(=O)(=O)c3ccccc3)cc2)cc1OCC	112	14	138	1.5	i	0.79	-18
O=C1CSC(c2ccc(Cl)cc2)N1Nc1nc(N2CCOCC2)nc(N2CCOCC2)n1 (centres undefined)	100	/	/	/	i	0.67	0
COc1ccc(C(C(=O)Nc2ccc(C(C)C)cc2)N(C)C(=O)CNC(C)=O)cc1 (centres undefined)	88	0	94	-1.9	i	0.85	4
CC(CCc1ccco1)NC(=O)Cn1ncc2c1-c1ccccc1OC2 (centres undefined)	81	/	/	-1.1	i	0.91	9
CC(C)NC(=O)CC(=O)N/N=C/c1ccc(F)cc1	103	7	111	0.2	i	1.1	-7
C/C(N)=N\S(=O)(=O)c1ccc(Cl)cc1	105	/	/	-0.5	i	0.9	-2
COC(=O)c1c(NC(=O)CN2C(=O)NC3(CCc4ccccc4C3)C2=O)sc2c1CCCCC2 (centres undefined)	33	36	100	-1.6	i	1	-6
CCOC(=O)CSc1nc(C)cc(C)n1	105	25	115	0.1	i	1.1	0
Cn1c(CC2C(=O)Nc3ccc(Br)cc32)nc2ccccc2c1=O (centres undefined)	100	55	115	-1.2	/	/	8
CC(C)c1ccc(NS(=O)(=O)c2ccc(Cl)nc2)cc1	97	/	/	-0.8	i	1.1	8
Clc1ccc(-n2nnnc2SCc2c(-c3ccccc3)nc3sccn23)cc1	95	/	/	-1.7	i	1	-6
N=C1/C(=C\c2coc3ccccc3c2=O)C(=O)N=C2SC=CN12	107	/	/	/	?	/	/
COc1cc2c(cc1OC)CN(C(=O)COc1ccc(C#N)cc1)CC2	119	37	85	0.6	i	0.81	-7
O=C(Cc1ccccc1)N1CCCC1c1ccccc1 (centres undefined)	101	/	/	0.2	i	1.1	3
COc1ccc(C(=O)C2CCCN(Cc3c[nH]c4ccccc34)C2)c(OC)c1 (centres undefined)	97	/	/	/	i	0.97	4
COc1ccc(C(C)(C)C)cc1S(=O)(=O)n1ccnc1C	106	30	104	/	i	0.96	-6
COc1ccc(-c2[nH]c(-c3ccccc3)nc2SCC(=O)Nc2nccs2)cc1	/	-38	101	-1.3	i	0.88	6
COc1cccc(CNC(C)(C)CO)c1OCc1ccc(Cl)cc1	80	/	/	/	i	0.88	-11
CC(C)N1C(=O)C2C(c3ccccc3O)NC(C)(C(=O)O)C2C1=O (centres undefined)	103	/	/	/	i	0.88	-14
CCCC(C)NC(=O)Cc1ccc(Br)cc1 (centres undefined)	98	9	126	-1.1	i	0.9	-2
COc1ccccc1N(CC(=O)Nc1cccnc1)S(=O)(=O)c1ccccc1	95	23	121	-1.8	i	0.97	-4
O/N=C1/CCc2nonc2/C1=N/O	96	24	120	-1.7	i	0.9	4
CCOC(=O)c1cc(=O)n2nc(-c3ccc(C)cc3)nc2s1	97	36	80	-1.2	i	0.95	-15
CNC(=S)Nc1ccc2[nH]c(=O)[nH]c2c1	99	/	/	/	i	1	-1
CCOC(=O)c1cnc2ccc(OCC)cc2c1N(C)Cc1ccccc1	260	14	81	1.2	i	1.1	-4
CCOC(=O)CSc1nnc([C@H](C)NC(=O)OC(C)(C)C)o1	96	-35	48	-1.2	i	0.98	-2
COc1ccc(/C=N/Nc2nnc(-c3ncc[nH]3)c3ccccc23)cc1	103	0	81	-1.5	i	1.1	-11
Cc1cccc(C(=O)NC2=NCCS2)c1	94	-29	116	/	i	0.95	4
COc1ccc(-c2cc(C(F)(F)F)n3nc(C(=O)O)cc3n2)cc1OC	101	21	127	-1.2	i	0.99	5
C/C(=C\c1ccc(C)o1)C(=O)c1c(C)cc(C)[nH]c1=O	101	-50	130	/	i	0.87	7
O=C(CSCc1ccccc1Br)N/N=C/c1ccc2c(c1)OCO2	102	/	/	-1.9	i	0.85	0
COc1cc(C(=O)NCCCNc2nc3cc(C)cc(C)c3cc2C#N)cc(OC)c1OC	99	43	73	3.5	i	0.85	-7
CC(C)C(=O)NC(=S)Nc1ccccn1	106	-23	56	-1.7	i	0.94	-4
CCN(Cc1ccccc1)C(=O)CN1C(=S)NC(C)(C)CC1C (centres undefined)	73	-33	47	-1.0	i	0.99	-5
CCC(=O)N(Cc1ccco1)c1nc(-c2ccc(OC)cc2)cs1	105	26	71	-0.9	i	1	-5
COc1cc(O)c2c(=O)cc(-c3ccccc3)oc2c1	92	/	/	/	i	1	7
CCOCC(=O)Nc1cc(C(=O)Nc2ccc(F)cc2)ccc1Cl	93	/	/	/	i	0.96	5
CCOC(=O)/C(=C/c1ccc(F)cc1)NC(C)=O	105	/	/	0.0	i	0.98	-4
Cc1nn(-c2ccccc2)c(N)c1C1(O)C(=O)Nc2ccccc21 (centres undefined)	104	/	/	/	i	0.93	/
CCn1c(Cc2c(C)[nH]c3ccccc23)nnc1SCC(=O)NCc1ccco1	48	-90	174	-2.5	i	0.89	2
CCCCCn1c(=S)[nH]c2ncccc2c1=O	100	/	/	-2.0	/	/	3
Cc1cccc(NC(=O)c2sc3nc(-c4ccc(F)cc4)cn3c2C)n1	99	0	98	-2.3	i	0.85	5
CC(C)CN(Cc1c(O)ccc2ccccc12)CC(C)C	100	/	/	/	i	1	-4
CCOC(=O)N1CCN(S(=O)(=O)c2ccc3c(c2)CCN3C(=O)C2CC2)CC1	104	-12	121	-2.2	i	1.1	28
COc1cc([N+](=O)[O-])ccc1NC(=O)CSc1nc2ccccc2n1-c1ccccc1	112	-7	89	-0.5	i	0.96	-12
COC(=O)c1sc(NC(=O)CSc2nnc(C(C)C)n2C)nc1C	96	-8	68	-0.9	i	0.99	-4
COc1ccc(CCNC(=O)COc2ccc(C)nc2[N+](=O)[O-])cc1	103	/	/	/	i	0.98	-9
CC1(C)SC(=Nc2ccccc2)N(S(=O)(=O)c2ccccc2)C1=O	110	-15	121	-1.2	i	0.91	2
CC(NC(=O)c1cncc(Br)c1)c1ccc(S(N)(=O)=O)cc1 (centres undefined)	102	27	59	-1.2	i	0.94	-2
CN(C)S(=O)(=O)c1ccc(Cl)c(C(=O)Nc2cccc([N+](=O)[O-])c2)c1	96	6	108	/	i	0.92	-7
O=C(CO/N=C/c1ccc(OC(F)F)cc1)NCc1cccs1	111	-52	102	0.7	i	0.89	0

15 structures already listed, arranged by formula weight, descending:
SMILES	RGS16-Gao	INS promoter inh	INS promoter inh cell count	GALR2 agonist	HSV replic up	HSV replic up primary fold	PKD1 inh
COc1cc([N+](=O)[O-])ccc1NC(=O)CSc1nc2ccccc2n1-c1ccccc1	112	-7	89	-0.5	i	0.96	-12
CCn1c(Cc2c(C)[nH]c3ccccc23)nnc1SCC(=O)NCc1ccco1	48	-90	174	-2.5	i	0.89	2
CC(NC(=O)c1cncc(Br)c1)c1ccc(S(N)(=O)=O)cc1 (centres undefined)	102	27	59	-1.2	i	0.94	-2
COC(=O)c1sc(NC(=O)CSc2nnc(C(C)C)n2C)nc1C	96	-8	68	-0.9	i	0.99	-4
CC1(C)SC(=Nc2ccccc2)N(S(=O)(=O)c2ccccc2)C1=O	110	-15	121	-1.2	i	0.91	2
CCOCC(=O)Nc1cc(C(=O)Nc2ccc(F)cc2)ccc1Cl	93	/	/	/	i	0.96	5
COc1ccc(CCNC(=O)COc2ccc(C)nc2[N+](=O)[O-])cc1	103	/	/	/	i	0.98	-9
CCC(=O)N(Cc1ccco1)c1nc(-c2ccc(OC)cc2)cs1	105	26	71	-0.9	i	1	-5
O=C(CO/N=C/c1ccc(OC(F)F)cc1)NCc1cccs1	111	-52	102	0.7	i	0.89	0
CCN(Cc1ccccc1)C(=O)CN1C(=S)NC(C)(C)CC1C (centres undefined)	73	-33	47	-1.0	i	0.99	-5
Cc1nn(-c2ccccc2)c(N)c1C1(O)C(=O)Nc2ccccc21 (centres undefined)	104	/	/	/	i	0.93	/
CC(C)CN(Cc1c(O)ccc2ccccc12)CC(C)C	100	/	/	/	i	1	-4
COc1cc(O)c2c(=O)cc(-c3ccccc3)oc2c1	92	/	/	/	i	1	7
CCOC(=O)/C(=C/c1ccc(F)cc1)NC(C)=O	105	/	/	0.0	i	0.98	-4
CCCCCn1c(=S)[nH]c2ncccc2c1=O	100	/	/	-2.0	/	/	3

Next entries follow.
SMILES	RGS16-Gao	INS promoter inh	INS promoter inh cell count	GALR2 agonist	HSV replic up	HSV replic up primary fold	PKD1 inh
COc1cc(-c2nnc(SCc3cccnc3)n2C)cc(OC)c1O	97	42	109	-1.5	i	1	3
CCOC(=O)c1ccc(NC(=O)c2nc[nH]c2C(=O)N[C@@H](C)C(=O)OC(C)(C)C)cc1	97	/	/	/	i	0.69	/
CCC1CCCCN1C(=O)CSc1nnc(CNC(=O)c2cc(OC)c(OC)c(OC)c2)o1 (centres undefined)	101	-4	50	-0.7	i	1.1	8
CC(C)NC(=S)N/N=C/C1=CCC2CC1C2(C)C (centres undefined)	110	/	/	0.4	i	1.1	-6
CC(=O)Nc1ccc(NC(=O)CSc2nnc(C)c(=O)n2N)cc1	105	/	/	/	i	1.3	/
CCCc1cc(=O)[nH]c(SCCOc2ccc(OCC)cc2)n1	103	-35	111	3.0	i	0.8	-5
O=C1OCCC1Sc1nc2ccccc2c(=O)n1Cc1ccccc1 (centres undefined)	100	20	134	/	i	0.9	1
CCOC(=O)Nc1sc(=S)n(C)c1C	100	-21	212	-0.7	i	0.76	-17
O=P(Cc1ccncc1)(c1ccccc1)c1ccccc1	100	32	118	-2.7	i	1	-1
CC/C(O)=C1\C(=O)CC(C)(C)CC1=NCCc1nc2ccccc2[nH]1	101	7	103	/	i	0.93	-2
CC(SCc1ccccc1)C(=O)N/N=C/c1ccc2c(c1)OCO2 (centres undefined)	67	41	82	0.5	i	1	1
Cc1ccccc1NC(=O)c1ccccc1NC(=O)c1ccco1	102	-332	57	-2.8	i	0.99	-4
CN(C)C(=O)CSc1nc2ccc(N3C(=O)c4ccccc4C3=O)cc2s1	109	/	/	/	i	0.97	/
CC(C)(C)c1ccc(C(=O)OCC(=O)Nc2sc3c(c2C#N)CCC3)cc1	105	-16	137	-0.7	i	0.87	-6
C[C@@]12CCC=C[C@H]1[C@H](c1ccc(/C=C/c3ccccc3)cc1F)N(Cc1ccccc1)C2=O	102	/	/	/	i	0.93	/
COc1ccccc1OCc1ccc(C(=O)NCc2ccco2)o1	102	-3	85	0.2	i	1.1	4
CN(C)S(=O)(=O)c1ccc(C(=O)NCC(=O)N/N=C/c2cccs2)cc1	100	-50	91	/	i	1	-4
